# T cruzi repl: inhibitors of intracellular T. cruzi growth, primary screen, luminescence, NIH3T3 host cells | T. cruzi beta-gal in NIH3T3, 90 h | inhibition, % (no concentration beside the values) | actives 1.4% (n = 300,000) | AID 1885, 2009;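 active = mean inhibition across valid replicates above about 55%, limit read from the data; inconclusive = mean below that limit but half or more replicates reach it; inactive = mean below it, under half of replicates reach it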;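 note: signal also drops with host cell toxicity which is not excluded here; 0% = plate median of DMSO wells and 100% = zero luminescence signal; higher percent means less beta-gal luminescence so fewer parasites; stock transfer was 50 nL into about 50 µL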
# Beta cell apopt: inhibitors of cytokine-induced beta cell apoptosis, primary screen, luminescence | INS-1E cytokine-induced death, ATP luminescence, 48 h; percent of positive-control rescue, neutral wells zero | protection from apoptosis, % (concentration not given with the values) | AID 435005, 2010 | actives 0.8% (n = 300,000);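 active = all replicates at 75% or more, or half of them and the mean; inconclusive = half reach 75% but not the mean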;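 note: 0% = cytokine-treated negative control wells and 100% = positive control rescue; higher means more ATP so stronger rescue from cytokine killing; wells of about 40 µL received 100 nL stock; the first replicate is given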
# FGF22 binding: binders of human FGF22 protein, primary screen, FGF22 synaptogenesis inhibitor project, biophysical, thermal shift, single point | Fibroblast growth factor 22 (Homo sapiens), Q9HCT0 | recombinant FGF22 thermal shift, SYPRO orange fluorescence; percent of sucrose octasulfate shift, DMSO zero | calls only at 9.99 µM | actives 1.5% (n = 340,000) | AID 651658, 2012;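 active = melting point raised past a set limit in the mean and every replicate; inconclusive = no clear call; three in four hits are not shown here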
# Target sequence (Q9HCT0 whole entry, looked up): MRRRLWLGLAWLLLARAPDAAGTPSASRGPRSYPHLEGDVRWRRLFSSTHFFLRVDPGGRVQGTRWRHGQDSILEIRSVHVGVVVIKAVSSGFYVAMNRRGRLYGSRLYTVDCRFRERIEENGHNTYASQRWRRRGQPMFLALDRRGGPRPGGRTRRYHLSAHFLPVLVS
# Calb FLC: C. albicans growth inhibition with fluconazole, primary screen, CaCi-2 strain, Alamar Blue fluorescence; actives 0.57% (n = 300,000); growth inhibition, % (concentration not given with the values); AID 1979, 2009; C. albicans CaCi-2 (fluconazole-resistant clinical isolate) + fluconazole, 48 h;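 active = most replicates above 75%; inconclusive = exactly half above 75%; inactive = most below 75%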;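 note: all wells also contain fluconazole at 8 µg/ml as a sub-toxic cotreatment; 0% = median of DMSO wells and 100% = median of geldanamycin control wells; wells of about 8 µL received 7.5 nL stock; the first replicate is given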
# ALR H2O2 inh: inhibitors of human ALR sulfhydryl oxidase, primary screen, biochemical, H2O2 detection, HRP-luminol luminescence, single point; FAD-linked sulfhydryl oxidase ALR (Homo sapiens), P55789; purified ALR, DTT oxidation; inhibition, % (no concentration beside the values); actives 3.8% (n = 290,000); AID 485317, 2010;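 active = mean and each replicate at 75% or more; inconclusive = only one of the two met; inactive = neither met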;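 note: stock transfer was 7.5 nL into about 7.5 µL; 0% = neutral wells and 100% = wells with inactivated enzyme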
# Target sequence (P55789 whole entry, looked up): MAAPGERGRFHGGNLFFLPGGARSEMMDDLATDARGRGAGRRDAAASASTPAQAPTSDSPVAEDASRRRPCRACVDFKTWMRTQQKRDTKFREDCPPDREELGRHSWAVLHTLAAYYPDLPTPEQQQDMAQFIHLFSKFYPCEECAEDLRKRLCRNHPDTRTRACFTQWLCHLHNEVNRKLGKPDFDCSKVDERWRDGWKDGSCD
# rRNA inh HTS: reduced GFP signal of wild-type E. coli, primary screen, bacterial rRNA inhibitor project, GFP/RFP fluorescence, OD600, single point | E. coli WT GFP vs humanized-ribosome RFP mutants, 24 h; active compounds read low; DMSO median 0, no signal -100 | GFP signal change (wild-type ribosome), % (no concentration beside the values) | actives 1.6% (n = 350,000) | AID 720706, 2013;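 active = significant combined selectivity score with lowered wild-type GFP, culture density cut under 30%, mutant RFP and density less affected; inactive = any of these conditions unmet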; note: one replicate is shown; some compounds called inactive have numbers as strong as hits
# AF4-AF9 inh: inhibitors of AF4 peptide binding to AF9, primary screen, biochemical, AlphaScreen, biotin-AF4 peptide, FLAG-AF9, single point; inhibition, % at 10 µM; AID 651704, 2012; actives 0.47% (n = 350,000);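 active = every replicate reaching a set inhibition limit, whatever the replicate mean, cut at about 25% in these data; inconclusive = mean inhibition reaches that limit but some replicates miss it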;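 note: 0% = plate neutral control median and 100% = total signal loss; the record names both 10 and 1 µM as test concentration; the first replicate is given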
# Target sequence (P42568 whole entry, looked up): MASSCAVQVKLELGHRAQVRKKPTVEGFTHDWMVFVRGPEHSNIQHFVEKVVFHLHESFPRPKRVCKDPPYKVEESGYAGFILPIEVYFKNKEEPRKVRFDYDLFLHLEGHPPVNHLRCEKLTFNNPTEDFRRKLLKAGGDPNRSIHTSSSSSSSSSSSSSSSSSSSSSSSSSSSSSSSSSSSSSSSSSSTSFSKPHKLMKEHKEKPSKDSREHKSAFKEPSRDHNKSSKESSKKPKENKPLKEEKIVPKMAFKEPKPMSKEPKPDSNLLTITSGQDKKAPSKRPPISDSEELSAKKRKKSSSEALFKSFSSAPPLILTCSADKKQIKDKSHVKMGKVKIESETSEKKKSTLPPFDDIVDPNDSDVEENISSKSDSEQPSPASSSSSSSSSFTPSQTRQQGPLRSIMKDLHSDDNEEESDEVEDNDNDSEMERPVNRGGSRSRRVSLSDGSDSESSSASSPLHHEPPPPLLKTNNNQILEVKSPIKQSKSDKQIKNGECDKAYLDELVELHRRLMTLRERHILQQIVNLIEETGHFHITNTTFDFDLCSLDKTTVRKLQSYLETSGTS
# RanGTP-Impb inh: inhibitors of RanGTP-importin-beta interaction, primary screen, biochemical, FRET, CFP-Ran, YFP-importin-beta, homogeneous. Ran GTPase (GTP-bound) - importin-beta complex. cell-free CFP-Ran/YFP-importin-beta FRET ratio. inhibition, % (concentration not given with the values). actives 1.1% (n = 300,000);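 active = most replicates above 15%; inconclusive = exactly half above 15%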;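 note: 0% = DMSO wells and 100% = Ran loaded with GDP instead of GTP; wells of about 40 µL received 100 nL stock; the first replicate is given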
# rRNA inh HTS OD600: second read-out of rRNA inh HTS, no call of its own (marks repeat the call); OD600 change, %; measured here: OD600 growth;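 optical density of the mix in the first replicate; 0 = DMSO median and -100 = no signal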
# rRNA inh HTS RFP: recorded beside rRNA inh HTS, whose call it bears; RFP signal change, %; measured here: RFP humanized mutant strains;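 first replicate; 0 = DMSO median and -100 = no signal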
# * hit, by the source's call; i = inactive; ? = inconclusive; / = no result given. This is a subset; rates above refer to the full screens.
SMILES,T cruzi repl,Beta cell apopt,FGF22 binding,Calb FLC,ALR H2O2 inh,rRNA inh HTS,rRNA inh HTS OD600,rRNA inh HTS RFP,AF4-AF9 inh,RanGTP-Impb inh
CN(C)C1(CNC(=O)c2ccc(Cl)c(S(=O)(=O)NCc3ccco3)c2)CCCCC1,3,-2,/,8,-4,/,/,/,/,-1.5
CCc1nn(CC(=O)N2CCC3(CC2)OCCO3)c(=O)c2cc3ccccc3n12,0,-1,i,-9,30,4,-1,0.1,-8.7,-2.0
Cc1nc2cc(C(=O)N3CCC4(CC3)OCCO4)ccc2n1-c1ccc(Br)cc1,-1,-4,/,6,/,/,/,/,/,3.7
CC12CN3C(O)C(C)(C1)CC(C)(C2)C3O (configuration not stated),13,2,/,-3,1,/,/,/,/,-0.1
O=[N+]([O-])c1ccc(N2CCCCCC2)c2ncccc12,9,-3,i,-16,/,-42,-47,-8.5,27*,-7.8
CCOc1ccc2nc(N=Nc3c(O)[nH]c(=S)[nH]c3=O)sc2c1,-2,-2,i,10,96*,-34*,-8.4*,-11*,-0.1,-11
Cc1cc(Cl)nc(N)n1,-2,2,/,-2,1,/,/,/,/,-11
FC(F)=C(F)CCSc1ncn[nH]1,-10,-4,i,-1,-4,17,7,-7.0,-2.4,1.2
Cc1c(C(=O)c2ccccc2)c2ccccc2n1C,13,-2,i,-10,4,-37,-36,-8.0,0.9,-2.5
C[C@]12CCC3C(C[C@@H](O)[C@H]4C[C@@H](O)CC[C@]34C)C1CC[C@@H]2O (some centres not stated),/,3,i,/,-2,0,3,-1.0,-1.3,/
Cc1cc(/C=C2/C(=O)NC(=O)N(c3ccccc3)C2=O)c(C)n1-c1ccc(F)cc1,-4,-7,/,7,8,/,/,/,/,11
C[C@]12CCC3C(CC[C@H]4C[C@@H](O)CC[C@]34C)C1CC[C@@]2(O)C(F)(F)F (some centres not stated),/,7,i,/,0,6,5,2.0,-24,/
O=[N+]([O-])c1ccc(N2CCCNCC2)c2ncccc12,49,/,i,1,-44,-5,-9,2.1,5.0,1.9
CN1[C@H]2CC[C@@H]1C(C(=O)N1CCOCC1)=C(O)C2,/,-7,i,/,-4,7,10,1.3,-0.5,/
CN(C)CP(=O)(O)CN(C)C=O,2,-11,/,-16,-1,/,/,/,/,-0.2
c1cncc(CNC2CCCCC2)c1,-14,/,i,3,-1,11,8,-0.3,-15,-0.3
CC(C)C12CN3CCN(CC(C3)/C1=N\O)C2,-9,0,i,-4,-9,9,-1,-6.1,7.4,0.9
O=c1c2ccccc2[nH]c(=S)n1-c1cccnc1,2,-3,i,5,-9,10,6,3.4,5.1,?
Cc1cccc(CCNCc2cc3cc(C)cc(C)c3[nH]c2=O)c1,26,1,i,15,-3,6,3,1.8,-0.3,-2.5
CCc1nc2ccc(N3CCN(C)CC3)cc2nc1CC,11,-2,i,20,-2,16,11,-1.5,-2.7,1.0
COC(=O)C1=C(c2ccc(Cl)c(C(F)(F)F)c2)C[C@@H]2CC[C@H]1N2C(=O)NC1CCCCC1,/,4,i,/,-1,-4,-26,15,0.0,/
Cc1cccc(NP(=O)(Oc2ccccc2F)Oc2ccccc2F)c1,1,9,i,2,2,-12,-10,-8.8,-3.7,1.6
COc1ccc(OCC(=O)N2CCN(Cc3ccc(SC)cc3)CC2)cc1,30,-1,i,5,/,12,1,7.5,0.8,2.7
Clc1ccc2c(c1)C(OC1CN3CCC1CC3)c1ccccc1CS2 (configuration not stated),20,-22,i,4,-17,-45,-56,-15,20,-1.2
CCOC(=O)c1[nH]c(C)c(C(=O)N2CCC3(CC2)OCCO3)c1C,-4,0,/,-10,-8,/,/,/,/,3.0
SMILES,T cruzi repl,Beta cell apopt,FGF22 binding,Calb FLC,ALR H2O2 inh,rRNA inh HTS,rRNA inh HTS OD600,rRNA inh HTS RFP,AF4-AF9 inh,RanGTP-Impb inh
Nc1c(Cl)cc([N+](=O)[O-])cc1Cl,-9,3,i,5,-8,-5,10,-4.3,-6.0,2.5
Oc1ccc(/C=N/NP(=S)(c2ccccc2)c2ccccc2)cc1,-1,-4,/,16,/,/,/,/,/,?
S=C(c1ccc(Cl)cc1)N1CCOCC1,-33,-2,/,-2,-5,/,/,/,/,6.3
C#CCOCOCC#CCN(CC)CC,16,-4,/,9,/,/,/,/,/,5.1
Cc1ccc(NS(=O)(=O)c2ccc(OCC(=O)N3CCN(C)CC3)cc2)cc1,46,/,i,-3,3,7,1,3.6,0.3,6.3
CCN(CC)c1ccc(N=Cc2c(O)n(-c3ccccc3)c(=O)[nH]c2=O)cc1,13,-6,i,21,81*,-7,-11,-2.3,2.2,-11
Cc1cc(OCC(=O)N[C@@H](Cc2ccccc2)C(=O)O)c2c3c(c(=O)oc2c1)CCC3,-1,4,i,-1,-2,-7,6,3.6,1.0,?
CCOc1cc(/C=C2/C(=O)NC(=O)N(c3ccc(CC)cc3)C2=O)ccc1OC(=O)c1cccs1,0,-1,/,-9,6,/,/,/,/,2.2
O=C1NC(=O)C(=CN2CCc3ccccc32)C(=O)N1,-27,-8,/,28,67,/,/,/,/,?
CCCCn1c(=O)c(C(=O)NCc2ccccc2)c(O)c2ccccc21,?,23,i,41,-7,7,7,-1.2,-8.9,8.0
COC(=O)C(O)(c1ccc(N=Cc2ccccc2O)c(C)c1)C(F)(F)F (configuration not stated),7,2,/,2,-3,/,/,/,/,2.2
CCOC(=O)N(c1ccccc1)P1(=S)OCC(C)O1 (configuration not stated),-10,-1,/,-13,-8,8,8,-1.7,/,-2.3
c1ccc(CN2CCNCC2)nc1,-9,-1,i,/,-17,10,-6,-1.9,-3.0,1.1
CC(=NCC1CCCO1)c1c(O)n(C2CCCCC2)c(=O)[nH]c1=O (configuration not stated),-4,-3,i,-1,18,5,-5,1.2,-1.1,3.7
Cn1c(O)c(C=NCCOc2ccc(Cl)cc2)c(=O)n(C)c1=O,-3,-7,/,1,-1,/,/,/,/,1.2
CCCCCCN1CCN(c2ccccc2Cl)CC1,14,-5,i,-6,-3,3,-4,-6.4,3.1,-5.8
COC(=O)C1=C(c2ccc(-c3ccccc3)c(F)c2)C[C@@H]2CC[C@H]1N2C(=O)NCCOc1ccccc1,/,9,i,/,0,3,6,-3.0,-9.0,/
CCCCCn1c(=O)c(C(=O)Nc2ccccc2N)c(O)c2ccccc21,14,19,i,-7,/,11,12,4.2,-0.9,-0.8
CC(C)N1CCN(Cc2ccc3c(c2)OCCO3)CC1CCO (configuration not stated),-14,-2,i,4,-6,10,9,-5.6,-2.9,-0.8
Cc1cccc(-n2c(-c3ccco3)nc3ccccc3c2=O)n1,-8,/,/,4,1,/,/,/,/,5.6
CCN(CC)N=O,/,-2,i,/,-15,2,-1,-0.9,/,/
CCCCOCCCn1c(N)c(C(=O)OC(C)COC)c2nc3ccccc3nc21 (configuration not stated),9,-3,/,2,39,/,/,/,/,5.4
Cc1ccccc1N1C(=O)NC(=O)/C(=C\c2cc(Br)c(N3CCOCC3)o2)C1=O,-11,-19,/,0,59,/,/,/,/,3.2
Brc1ccc2[nH]cc(/C=N/N3CCCCC3)c2c1,8,-4,i,-3,63,-14,-9,22,26*,4.5
COC1CC(OC2CCC3(C)C(CCC4C3CCC3(C)C(C5=CC(=O)OC5)C(OC(C)=O)CC43O)C2)OC(C)C1OC1OC(COC2OC(CO)C(O)C(O)C2O)C(O)C(O)C1O (configuration not stated),-10,/,/,-2,-12,/,/,/,/,-2.1
SMILES,T cruzi repl,Beta cell apopt,FGF22 binding,Calb FLC,ALR H2O2 inh,rRNA inh HTS,rRNA inh HTS OD600,rRNA inh HTS RFP,AF4-AF9 inh,RanGTP-Impb inh
COc1ccc(C(CNC(=O)Cc2ccc(Cl)c(Cl)c2)N2CCCCC2)cc1 (configuration not stated),51,2,i,-6,-1,-32,-48,-11,5.4,1.1
CCC(C(=O)Nc1ccc(Cl)cc1)N1CCCC1=O (configuration not stated),3,-4,i,43,-7,20,4,1.1,-1.2,4.7
COC(=O)C1=C(c2ccc(F)cc2OCc2ccccc2)C[C@@H]2CC[C@H]1N2C(=O)NCCCc1ccccc1,/,-2,i,/,3,7,6,-0.1,0.4,/
O=C1NC(=O)N(c2cccc(Br)c2)C(=O)/C1=C/c1ccsc1,-13,2,i,-6,-10,1,-2,1.8,-4.7,8.1
C=Cc1ccc(Cn2c(C(=O)O)c(C=O)c3ccccc32)cc1,-3,-4,/,1,/,-18,-11,0.2,-2.2,4.0
N#Cc1cc2c(nc1SCC(=O)Nc1cc(Cl)cc(Cl)c1)C1CCN2CC1,33,-4,i,0,-3,0,0,1.7,?,-1.7
CCN(CC)CCN1Cc2ccccc2C1=N,-10,-9,/,-7,9,/,/,/,/,4.7
CN1CCN(c2c(N)c(=O)oc3ccccc23)CC1,-1,3,i,-5,99*,2,2,-0.7,-0.5,-2.5

# Single values from above:
# In T cruzi repl, C=Cc1ccc(Cn2c(C(=O)O)c(C=O)c3ccccc32)cc1 is entered as -3
# In AF4-AF9 inh, C[C@]12CCC3C(C[C@@H](O)[C@H]4C[C@@H](O)CC[C@]34C)C1CC[C@@H]2O (some centres not stated) is entered as -1.3
# In ALR H2O2 inh, CN1CCN(c2c(N)c(=O)oc3ccccc23)CC1 is entered as 99*

# Looked up one by one from above (three):
SMILES,T cruzi repl,Beta cell apopt,FGF22 binding,Calb FLC,ALR H2O2 inh,rRNA inh HTS,rRNA inh HTS OD600,rRNA inh HTS RFP,AF4-AF9 inh,RanGTP-Impb inh
C[C@]12CCC3C(C[C@@H](O)[C@H]4C[C@@H](O)CC[C@]34C)C1CC[C@@H]2O (some centres not stated),/,3,i,/,-2,0,3,-1.0,-1.3,/
CN1[C@H]2CC[C@@H]1C(C(=O)N1CCOCC1)=C(O)C2,/,-7,i,/,-4,7,10,1.3,-0.5,/
CCN(CC)c1ccc(N=Cc2c(O)n(-c3ccccc3)c(=O)[nH]c2=O)cc1,13,-6,i,21,81*,-7,-11,-2.3,2.2,-11
